High-throughput results deposited in PubChem BioAssay by National Center for Advancing Translational Sciences (NCATS).
GLA inh pH 4.5: qHTS Assay for Inhibitors of Human alpha-Galactosidase at pH 4.5; Alpha-galactosidase A (Homo sapiens), P06280; AID 1467, 2008; purified enzyme, 4-MU-alpha-Gal fluorescence, pH 4.5; activity change, negative = inhibition, % at 105 µM; 230,000 tested, under 10 active; inconclusive = small, poorly fitted or top-dose-only inhibition, or a rising curve; inactive = flat fitted curve, though single readings scatter; no compound was filed as active;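 also: 0% = full activity with enzyme and -100% = basal without enzyme; dose as in the result columns while the protocol names 77 µM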
Target sequence (P06280 whole entry, looked up): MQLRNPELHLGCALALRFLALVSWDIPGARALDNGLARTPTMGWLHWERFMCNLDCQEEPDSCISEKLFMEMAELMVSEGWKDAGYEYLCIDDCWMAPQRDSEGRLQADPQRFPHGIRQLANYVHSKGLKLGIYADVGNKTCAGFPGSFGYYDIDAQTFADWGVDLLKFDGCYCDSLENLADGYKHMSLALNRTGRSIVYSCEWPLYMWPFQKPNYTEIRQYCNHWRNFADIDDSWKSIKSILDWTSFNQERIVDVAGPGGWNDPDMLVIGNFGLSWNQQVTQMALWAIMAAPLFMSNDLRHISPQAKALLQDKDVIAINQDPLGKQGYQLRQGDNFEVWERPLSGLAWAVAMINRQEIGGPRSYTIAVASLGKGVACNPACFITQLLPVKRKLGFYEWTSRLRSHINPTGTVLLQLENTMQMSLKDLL
Rango release inh: qHTS Assay for Inhibitors of RanGTP induced Rango (Ran-regulated importin-beta cargo) - Importin beta complex dissociation | Biochemical FRET Rango-importin beta, RanGTP-induced dissociation | 340,000 compounds, 0.071% hits | Snurportin-1 (Homo sapiens) + GTP-binding nuclear protein Ran (Homo sapiens) + Importin … | AID 540253, 2011 | Potency, µM (highest dose often 46.1 µM), without a hit: at the highest dose activity change, negative = inhibition; active means falling FRET ratio curve, often poorly fitted, with flat reads before Ran was added; inconclusive means other falling curves, or compound fluorescence or quenching; inactive means flat or rising ratio curve;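 also: potency is read from the fitted curve at half-maximal effect; % of control where 0% means no effect; nearly all actives have a fitted effect of over 45% in size; -100% = wells without RanGTP and RCC1; the record marks most hits as doubtful in a second field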
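Rango (0.1 uM)–importin beta (0.25 uM) complex; RanGTP-RCC1 trigger; 45 min RT; CFP/YFP FRET read.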
miR-21 reporter: qHTS Assay for Modulators of miRNAs and/orActivators of miR-21. Potency, µM (titrated, usually from 38.3 µM), inactives show top-dose reporter change, positive = more light. 340,000 tested, under 10 active. AID 2288, 2010. HeLa miR-21 FLuc reporter, luciferase, 48 h; active = well fitted rising curve with a large enough effect; inconclusive = small, poorly fitted or top-dose-only effect; inactive = no such curve, though single readings can be large or run the other way;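 also: % of control where 0% means no effect; miR-21 action dims this reporter so a rising signal means less miR-21 action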
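HeLa cells endogenously expressing miR-21, stably carrying CMV-driven firefly luciferase with a downstream miR-21 binding site, 2000 cells/well. Titrations up to approximately 40 uM, 48 hours; luciferase luminescence read.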
Rango-impB inh: qHTS Assay for Inhibitors of Rango (Ran-regulated importin-beta cargo) - Importin beta complex formation | Importin subunit beta-1 (Homo sapiens), Q14974 | Rango CFP/YFP FRET sensor + importin beta, 45 min | Potency, µM (titrated, usually from 92.2 µM), for inactives: at the top dose inhibition of complex formation | 340,000 compounds, 0.031% hits | AID 540263, 2011; active = rising FRET ratio curve, often small or poorly fitted; inconclusive = mostly compound fluorescence or quenching in the first reads; inactive = flat curves in all reads;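 also: potency is read from the fitted curve at half-maximal effect; 0% = DMSO wells and 100% = buffer wells lacking importin beta; nearly all actives have a fitted effect of over 15% in size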
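FRET biosensor Rango (snurportin 1 IBB between N-terminal EYFP and C-terminal Cerulean), 50 nM in PBS/1 mM DTT/0.02% Tween-20/0.1% BSA, preincubated 5 min RT with compound; 0.125 microM importin beta added, 45 min RT, CFP/YFP FRET ratio read.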
Starred values were filed as active, the others as inactive; ? = inconclusive; . = no result given. This is a subset. The share of hits here may be higher or lower than overall.

| SMILES | GLA inh pH 4.5 | Rango release inh | miR-21 reporter | Rango-impB inh |
| --- | --- | --- | --- | --- |
| O=C(Nc1ccc2c(c1)OCO2)c1cnccn1 | 4 | -6% | -53% | -0.2% |
| OC(CNCc1ccc(Cl)cc1)C(F)(F)F (stereo not given) | 3 | 11% | -1% | -0.2% |
| CCNC(=O)c1c(NC(C)=O)sc2c1CCCC2 | -2 | 1% | -2% | 4.1% |
| CCc1cccc(C)c1NC(=O)C1=C(C(=O)O)CCCC1 | 6 | -13% | 0% | ? |
| CC1CCN(S(=O)(=O)c2ccc3c(c2)c(=O)c(C(=O)NCc2ccco2)cn3C)CC1 | -7 | -6% | 0% | -4.4% |
| O=C(O)c1cc(N/N=C/C=C/c2ccccc2)ccc1Cl | -17 | ? | -80% | ? |
| O=C(COC(=O)c1ncc(Cl)c(Cl)c1Cl)NC1CCS(=O)(=O)C1 (stereo not given) | . | -5% | . | -1.4% |
| CSc1ccccc1NC(=O)CSc1nnnn1-c1ccccc1SC | -3 | -8% | 1% | -0.6% |
| Cc1ccccc1OCCC(=O)Nc1ccc2c(C)cc(=O)oc2c1 | . | -14% | -17% | -2.7% |
| COc1ccccc1NC(=S)Nc1cccc2cnccc12 | -9 | 9% | 1% | 1.5% |
| O=C(Nc1ccccc1C(=O)NCc1ccco1)c1ccco1 | 7 | 0% | -3% | 0.5% |
| O=C(OCc1c(F)cccc1Cl)c1cnc2ccccc2n1 | . | -6% | 1% | 4.8% |
| NC(=O)Cn1cc(/C=N\NS(=O)(=O)c2ccc(Cl)cc2)c2ccccc21 | . | 9% | -4% | -3.7% |
| COc1cc(/C=N/Nc2nc(C)cc(C)n2)ccc1OC(=O)c1ccco1 | -13 | -5% | -18% | 3.4% |
| O=C(COc1ccc(Br)cc1F)N1CCN(c2ncccn2)CC1 | -7 | -3% | -2% | -1.7% |
| O=C(CSc1ncnc2ccccc12)Nc1ccc(N2CCOCC2)cc1 | 8 | . | -1% | . |
| O=S(=O)(c1ccc(F)cc1)N1CN(Cc2ccco2)c2nc3ccccc3nc21 | 0 | ? | -18% | ? |
| CC1(/[N+]([O-])=C/c2ccccc2F)CCCCC1=O (stereo not given) | 0 | 4% | -3% | 2.4% |
| CCOC(=O)C1CCN(C(=O)C(C)Oc2ccc(C(=O)c3ccccc3)cc2)CC1 (stereo not given) | . | 8% | . | 3.2% |
| COc1ccc(C(=O)NCCS(=O)(=O)NCc2cccnc2)cc1 | . | -5% | . | -0.5% |

5 neighbouring records already listed:
| SMILES | GLA inh pH 4.5 | Rango release inh | miR-21 reporter | Rango-impB inh |
| --- | --- | --- | --- | --- |
| O=C(Nc1ccccc1C(=O)NCc1ccco1)c1ccco1 | 7 | 0% | -3% | 0.5% |
| O=C(OCc1c(F)cccc1Cl)c1cnc2ccccc2n1 | . | -6% | 1% | 4.8% |
| NC(=O)Cn1cc(/C=N\NS(=O)(=O)c2ccc(Cl)cc2)c2ccccc21 | . | 9% | -4% | -3.7% |
| COc1cc(/C=N/Nc2nc(C)cc(C)n2)ccc1OC(=O)c1ccco1 | -13 | -5% | -18% | 3.4% |
| O=C(COc1ccc(Br)cc1F)N1CCN(c2ncccn2)CC1 | -7 | -3% | -2% | -1.7% |

More compounds follow:
| SMILES | GLA inh pH 4.5 | Rango release inh | miR-21 reporter | Rango-impB inh |
| --- | --- | --- | --- | --- |
| CCC1C(=O)CC(c2ccccc2)NC1c1ccccc1 (stereo not given) | 7 | 11% | 3% | -0.4% |
| C(=N\N1CCN(Cc2cccc3ccccc23)CC1)/c1cccnc1 | -25 | -7% | -3% | -1.2% |
| S=C(NCCC(c1ccccc1)c1ccccc1)Nc1cccc(Cl)c1 | -4 | -3% | 4% | 1.7% |
| O=C1CCc2cc(S(=O)(=O)Nc3ccccc3)ccc2N1 | . | 5% | . | ? |
| O=C(CSc1nccn(-c2ccc(Br)cc2)c1=O)Nc1ccccc1F | . | 1% | . | 2.6% |
| CCOC(=O)/C(C(=O)Nc1ccccc1Cl)=C1/NC(C)(C)Cc2ccccc21 | 3 | 1% | -2% | -0.2% |
| Cc1ccc2nc3c(cc2c1)c(NC(=O)c1cccnc1)nn3C | 4 | ? | -6% | ? |
| COc1ccccc1CC(=O)Nc1ccc(S(=O)(=O)N2CCOCC2)cc1 | . | 4% | -1% | ? |
| O=C(Nc1cccc2ccccc12)/C(=C\c1cccc([N+](=O)[O-])c1)NC(=O)c1cccs1 | -1 | -17% | -1% | ? |
| COc1ccc(S(=O)(=O)NC(CC(C)C)C(=O)NC(C)c2cccs2)cc1 (stereo not given) | . | 32% | . | -0.1% |
| O=C(Nc1ccc(C(=O)O)cc1)/C(=C\c1ccc2c(c1)OCO2)NC(=O)c1ccccc1 | 2 | 1% | 2% | ? |
| CCOC(=O)C1(CCOc2ccccc2)CCN(Cc2ccc(O)c(OC)c2)CC1 | . | 8% | 21% | 1.0% |
| CCOC(=O)N1CCN(C(=O)CSc2nnc(-c3cccs3)o2)CC1 | -3 | 3% | -1% | -1.4% |
| CCOc1ccc(C(=O)Nc2cc(-c3nc4ccccc4[nH]3)ccc2Cl)cc1[N+](=O)[O-] | -13 | 0% | -23% | -0.6% |
| O=C(O)c1ccc(Cl)cc1Nc1nc2cc(Cl)ccc2o1 | . | 0% | -6% | 13% |
| Cc1c(/C=C/C(=O)c2ccc(Cl)s2)cnn1C | -10 | 1% | -54% | ? |
| CC1CCCCC1NC(=O)CN1C(=O)CSc2cc(S(=O)(=O)N3CCCCCC3)ccc21 (stereo not given) | 3 | 0% | -5% | 4.9% |
| CN(c1ccc(O)cc1)c1nc(O)c(C2=c3ccccc3=NC2=O)s1 | . | 0% | . | -0.5% |
| Cc1ccc(C(=O)CN(CCCC(N)=O)S(=O)(=O)c2ccc([N+](=O)[O-])cc2)cc1 | . | -7% | . | -3.4% |
| COC(=O)CSc1ccc(S(=O)(=O)N2CCOCC2)cc1[N+](=O)[O-] | -1 | 4% | -4% | -0.1% |
| O=C(COC(=O)C1COc2ccccc2O1)NC(=O)NC1CCCCC1 (stereo not given) | -1 | -10% | 1% | -0.5% |
| Cn1c(=O)[nH]c(=O)c2c1nc(N1CCCCCC1)n2CC(=O)c1ccccc1 | 9 | . | -2% | . |
| Cc1ccccc1C(=O)c1c[nH]c(C(N)=O)c1 | 6 | 16% | -1% | 0.7% |
| CCP(=O)(CC)C(C)(C)CP(=O)(c1ccccc1)c1ccccc1 | . | -3% | -30% | -0.6% |
| CC(CCOS(N)(=O)=O)c1ccccc1 (stereo not given) | . | -3% | -2% | 3.7% |
| COc1cc(NC(C)=O)c2ncccc2c1[N+](=O)[O-] | 13 | -4% | 0% | -0.5% |
| O=C(NNC(=O)C1CC1)c1cc2cc3ccccc3nc2s1 | -3 | -2% | -5% | 0.0% |
| Cc1nc2nc(C)c(NS(=O)(=O)c3ccc4c(c3)CCCC4)c(=O)n2[nH]1 | . | -10% | 0% | 6.4% |
| O=C(CN(CCN1CCOCC1)C(=O)Cn1nnc(-c2ccc(F)cc2)n1)NC1CCCCC1 | 2 | 1% | 1% | -5.8% |
| COc1ccc(CN(C)C(=O)COC(=O)c2c(C)nn(-c3ccc(F)cc3)c2Cl)cc1 | . | -4% | . | 2.4% |
| Fc1ccc2c(c1)C(c1ccncc1)=NNC(c1ccc(Cl)cc1)=N2 | 1 | 1% | -1% | 0.0% |
| CC[C@]12c3[nH]c4cc(CCC(=O)N(C)C)ccc4c3CCN1C(=O)[C@@H](CC(=O)NCc1ccc(OC)c(OC)c1)C[C@@H]2C(=O)N1CCN(C(=O)c2ccco2)CC1 | . | -15% | . | -0.5% |
| COC(=O)c1sc(N2C(=O)C(O)=C(C(=O)c3ccc(C)o3)C2c2ccc([N+](=O)[O-])cc2)nc1C (stereo not given) | . | ? | -31% | ? |
| C/C(CC(=O)Nc1ccc(Cl)cc1Cl)=N\NC(=O)C(=O)N1CCCC1 | 5 | 7% | -11% | 4.1% |
| CC(Sc1nnc(-c2ccccc2)c(-c2ccccc2)n1)C(=O)NCC1CCCO1 (stereo not given) | . | -5% | . | 0.4% |
| COCCNC(=O)C1CC2Cn3c(nc4ccccc43)C2N1C (stereo not given) | 5 | 12% | 11% | 0.5% |
| CCOc1ccc(S(=O)(=O)Nc2cc(Sc3ncn[nH]3)c3oc(=O)sc3c2)cc1 | 5 | . | -2% | . |
| O=C(COC(=O)c1ccccc1NC(=O)c1ccccc1)c1cccc([N+](=O)[O-])c1 | 1 | -15% | -9% | 2.9% |
| CCn1c2c(c3cc(OCC(C)C)ccc31)CCCC2=O | -1 | 11% | -11% | 3.0% |
| CCOC(=O)c1[nH]c2ccc(OC)cc2c1NS(=O)(=O)c1ccc(OC)cc1OC | 2 | -2% | -10% | -3.6% |
| CCCCCOc1ccc(CSCCNC(=S)Nc2ccccc2)cc1 | -11 | 10% | 22% | -0.6% |
| O=C(COC(=O)CCc1ccccc1)NC1CCS(=O)(=O)C1 (stereo not given) | . | 5% | . | ? |
| Cc1nc(=O)cc(-c2ccccc2)n1-c1ccccc1 | -4 | -8% | -2% | -2.6% |
| Cc1sc2ncnc(OCC(=O)N3CCN(S(=O)(=O)c4ccc(Cl)cc4)CC3)c2c1C | -11 | 2% | -5% | 0.9% |
| CC1CCCCN1S(=O)(=O)c1ccc(S(=O)(=O)N2CCN(c3ccc(F)cc3)CC2)cc1 (stereo not given) | 9 | 1% | 3% | -3.0% |
| COc1ccc(C(=O)OCC(=O)N2CCCC2=O)c(OC)c1 | 6 | 9% | 1% | -2.9% |
| Cc1cccnc1NC(=O)c1ccc(Br)o1 | . | -23% | . | -0.1% |
| O=C(/C=C/c1ccco1)NC(=S)Nc1ccc(N2CCCC2)cc1 | -3 | 9% | 19% | 3.9% |
| C=CC[C@@H](CC(=O)N(CCO)Cc1ccccc1)C(=O)N[C@@H](COC(=O)[C@@H](CC=C)Cc1ccc(F)cc1)Cc1c[nH]c2ccccc12 | . | 0% | . | -1.3% |
| COC(=O)c1sccc1NC(=O)Nc1cccc(F)c1 | -2 | 1% | -4% | -0.4% |

Additional results follow.
| SMILES | GLA inh pH 4.5 | Rango release inh | miR-21 reporter | Rango-impB inh |
| --- | --- | --- | --- | --- |
| CN(C(=O)c1ccc(NC(=O)Cc2ccc([N+](=O)[O-])cc2)cc1)C1CC1 | . | 11% | . | -2.9% |
| Cc1cc(NC(=O)CCN2CCN(C/C=C/c3ccccc3)CC2)ccc1Br | . | ? | 1% | -0.2% |
| COc1ccc(N(CC(=O)N/N=C/c2ccc(F)cc2)S(=O)(=O)c2ccccc2)cc1 | . | -24% | 0% | 0.3% |
| COc1cc2c(cc1OC)C(C(=O)Nc1cc(OC)c(OC)c(OC)c1)C(c1cccnc1)N(C)C2=O (stereo not given) | -23 | 9% | -9% | 1.6% |
| Cc1ccc(C(=O)N2CCN(c3ccc(NC(=O)c4ccc5c(c4)OCCO5)cc3)CC2)cc1 | . | 11% | 8% | 0.0% |
| O=c1c2sccc2[nH]c(=S)n1-c1ccccc1 | -24 | -7% | -23% | 6.1% |
| CC(Sc1nnnn1C)C(=O)Nc1ccc(Oc2ccccc2)cc1 (stereo not given) | -23 | -2% | -7% | 0.0% |
| C=CCn1c(SCC(=O)N2CCc3ccccc3C2)nc2sc(CC)cc2c1=O | 2 | -23% | 21% | 1.3% |
| CNc1nc2cccnc2s1 | -3 | -7% | -12% | 3.2% |
| CC1CC2(C)CC(C)C1(COC(=O)Nc1ccccc1)CO2 (stereo not given) | -1 | ? | -18% | 7.1% |
| O=C(Oc1cccc(/C=N/NC(=O)c2ccccn2)c1)c1ccc([N+](=O)[O-])cc1 | . | 0% | 6% | 0.5% |
| CCN(CC)P1(=O)OC(c2cc(OC)c(OC)c(OC)c2)=Nc2c1c(C)nn2-c1ccccc1 (stereo not given) | 5 | -18% | 1% | -0.6% |
| O=C(COC(=O)CCC(=O)c1cccs1)NCc1cccs1 | -3 | -4% | 1% | 2.6% |
